From PubChem
Sa growth 42C – blocks Staphylococcus aureus growth; S. aureus RN4220 growth, OD600, 20 h, 42 °C; active compounds read low; hit rate 0.53% among 170,000; relative growth, % (concentration not given with the values);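 active means growth at 42 °C up to 50% and 20 or more points under that at 30 °C, or under 10% at both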;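 further: 300 nL library stock went into each well; scaled to the means of positive and negative controls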
GIV Gai3 FP – blocks GIV peptide binding to rat Galpha-i3. percent of control (FP), % (no concentration beside the values). Galpha-i3/FITC-GIV peptide fluorescence polarization, 90 min; active compounds read low; scaled: aluminum fluoride 0%, vehicle 100%. P08753. hit rate 0.42% among 210,000;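 active means replicate mean at 85% of control or lower, very high polarization wells dropped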;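 further: wells of about 15 µL received 100 nL stock; the first replicate is given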
Target sequence (P08753 whole entry, looked up): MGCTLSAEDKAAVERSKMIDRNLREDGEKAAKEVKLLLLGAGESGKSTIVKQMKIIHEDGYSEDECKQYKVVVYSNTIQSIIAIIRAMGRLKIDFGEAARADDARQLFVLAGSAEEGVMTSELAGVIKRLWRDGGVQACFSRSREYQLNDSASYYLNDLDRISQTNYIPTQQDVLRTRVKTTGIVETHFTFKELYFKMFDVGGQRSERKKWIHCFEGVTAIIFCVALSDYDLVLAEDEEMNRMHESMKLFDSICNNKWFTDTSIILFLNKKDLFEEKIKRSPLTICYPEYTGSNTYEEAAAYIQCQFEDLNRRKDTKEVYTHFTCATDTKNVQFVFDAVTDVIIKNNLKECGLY
HCMV NEC inh – disrupts HCMV UL50-UL53 complex binding; HTRF UL50-UL53 interaction, normalized percent inhibition; inhibition, % (test concentration not listed); hit rate 0.15% among 190,000; AID 1918969;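 active means both replicates at 50% or more, plus weaker picks with an unusually low signal ratio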;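 further: stock transfer was 100 nL into about 20 µL; 0% = negative control wells and 100% = wells with untagged competitor protein; inactives centre near -12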
Sa growth 42C second temp – second read-out of Sa growth 42C, no call of its own (marks repeat the call); relative growth, %; measured here: growth at 30 °C;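 optical density after 20 h as mean of two plates; 100% = untreated growth and lower means inhibition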
* marks the source's active call; other numbers are inactive results; & = joins results of further samples.

For Cc1ccccc1C(=O)n1nc(-c2cccnc2)nc1NCc1ccc(F)cc1 the results were Sa growth 42C 96, GIV Gai3 FP 104, HCMV NEC inh -14 and Sa growth 42C second temp 92.
Cc1ccc(C)c(N2CCN(C(=O)CSCc3ccccc3Cl)CC2)c1 was read as Sa growth 42C 78, GIV Gai3 FP 102 and Sa growth 42C second temp 77.
For CCCCS(=O)(=O)c1oc(-c2ccc(F)cc2)nc1S(=O)(=O)c1ccc(C)cc1 the results were Sa growth 42C 4.8*, GIV Gai3 FP 107, HCMV NEC inh -16 and Sa growth 42C second temp 33*.
Screening COC(=O)C1=C(Nc2ccccc2NC(=O)c2ccc(Cl)cc2)CSC1 returned Sa growth 42C 94, GIV Gai3 FP 103, HCMV NEC inh -7 and Sa growth 42C second temp 81.
`Cc1cc(C)c2c(N)c(C(=O)c3cccs3)sc2n1` gave Sa growth 42C 121, GIV Gai3 FP 113, HCMV NEC inh -24 and Sa growth 42C second temp 90.
Screening CCn1cnc2cc(NCc3ccccc3OC)ccc21 returned Sa growth 42C 87, GIV Gai3 FP 104 and Sa growth 42C second temp 78.
For CC(C)NC(=O)CCn1c(=O)c2cc(Cl)ccc2n2c(=O)[nH]nc12 the results were GIV Gai3 FP 100 and HCMV NEC inh -33.
`Cc1oc(C)c2c(=O)cc(-c3ccc4c(c3)OCO4)cc(OC(=O)c3ccc(Cl)cc3)c12` gave Sa growth 42C 95, GIV Gai3 FP 99&99, HCMV NEC inh 7&-27 and Sa growth 42C second temp 94.
COc1cc(NC(=O)Cn2c(C)cc(C)c(S(=O)(=O)c3ccc(C)cc3)c2=O)cc(OC)c1 was read as GIV Gai3 FP 100 and HCMV NEC inh -32.
`Cc1ccc(-c2ccc(N3CCCC(C(=O)NC4CCCC4)C3)nn2)cc1` (stereo unspecified) gave GIV Gai3 FP 98 and HCMV NEC inh -36.
`Cc1cc(SCC(=O)NCc2ccco2)nc2ccccc12` gave Sa growth 42C 111, GIV Gai3 FP 101, HCMV NEC inh -1 and Sa growth 42C second temp 78.
Screening Cc1cc(C(=O)COC(=O)C2CC2)c(C)n1CC(F)(F)F returned Sa growth 42C 118, HCMV NEC inh -4 and Sa growth 42C second temp 105.
For COC(=O)c1sc2nc(C)[nH]c(=S)c2c1C the results were Sa growth 42C 96, HCMV NEC inh 1 and Sa growth 42C second temp 85.
Cc1c(N2CCC(C(=O)N3CCN(C)CC3)CC2)c(=O)n(C)c(=O)n1-c1ccccc1 was read as GIV Gai3 FP 104 and HCMV NEC inh -32.
`NC1=C(C(=O)NCc2ccco2)C(=Nc2ccccc2)SC1C(=O)Nc1ccc(Oc2ccccc2)cc1` (stereo unspecified) gave Sa growth 42C 104, HCMV NEC inh -7 and Sa growth 42C second temp 90.
CNC1CCCc2c1n(C)c1ccc(Cl)cc21 (stereo unspecified) was read as Sa growth 42C 71, GIV Gai3 FP 100 and Sa growth 42C second temp 64.
Cc1ccc(/C=C/C(=O)N2CCN(S(=O)(=O)/C=C/c3ccccc3)CC2)o1 was read as Sa growth 42C 96, HCMV NEC inh -32 and Sa growth 42C second temp 86.
C=CCn1cnc2ccc(Br)cc2c1=O was read as Sa growth 42C 85, HCMV NEC inh -25 and Sa growth 42C second temp 91.
CC1Cn2cc(C(=O)N3CCN(c4ccccc4)CC3)c(=O)c3c(Cl)ccc(c32)O1 (stereo unspecified) was read as Sa growth 42C 87, GIV Gai3 FP 109, HCMV NEC inh 0 and Sa growth 42C second temp 98.
For CSc1nc2c3ccccc3n(C(C)=O)c2n1Cc1ccccc1 the results were Sa growth 42C 116, HCMV NEC inh 11 and Sa growth 42C second temp 104.

Looked up one by one from the entries so far (four):
Cc1ccc(C)c(N2CCN(C(=O)CSCc3ccccc3Cl)CC2)c1 was read as Sa growth 42C 78, GIV Gai3 FP 102 and Sa growth 42C second temp 77.
For Cc1ccccc1C(=O)n1nc(-c2cccnc2)nc1NCc1ccc(F)cc1 the results were Sa growth 42C 96, GIV Gai3 FP 104, HCMV NEC inh -14 and Sa growth 42C second temp 92.
Cc1ccc(/C=C/C(=O)N2CCN(S(=O)(=O)/C=C/c3ccccc3)CC2)o1 was read as Sa growth 42C 96, HCMV NEC inh -32 and Sa growth 42C second temp 86.
`Cc1oc(C)c2c(=O)cc(-c3ccc4c(c3)OCO4)cc(OC(=O)c3ccc(Cl)cc3)c12` gave Sa growth 42C 95, GIV Gai3 FP 99&99, HCMV NEC inh 7&-27 and Sa growth 42C second temp 94.

Next part:
Screening CCN(CC(=O)Nc1ccccc1OC)C(=O)c1cccc(CS(C)(=O)=O)c1 returned Sa growth 42C 96, HCMV NEC inh -3 and Sa growth 42C second temp 98.
For CC1(C)CC(=O)C=C(N2CCN(S(=O)(=O)/C=C/c3ccccc3)CC2)C1 the results were Sa growth 42C 97, HCMV NEC inh -8 and Sa growth 42C second temp 89.
`Cc1ccsc1CN(C(=O)COc1ccccc1Cl)C1CCS(=O)(=O)C1` (stereo unspecified) gave Sa growth 42C 102, GIV Gai3 FP 102, HCMV NEC inh -18 and Sa growth 42C second temp 82.
`O=C(Nc1ncn[nH]1)c1cccs1` gave GIV Gai3 FP 100 and HCMV NEC inh -3.
For CS(=O)(=O)Cc1cc(Cl)cc2c1OCOC2 the results were Sa growth 42C 90, GIV Gai3 FP 95, HCMV NEC inh -9 and Sa growth 42C second temp 89.
Screening CC(C)[C@@H]1CC[C@@H](C)C[C@H]1O returned Sa growth 42C 87, HCMV NEC inh -35 and Sa growth 42C second temp 88.
For O=C(CCN1C(=O)/C(=C/c2ccc(Cl)cc2Cl)SC1=S)Nc1cccnc1 the results were GIV Gai3 FP 100 and HCMV NEC inh -18.
Screening CC(=O)N(c1ccccc1)c1nc(/C=C/C(=O)O)cs1 returned Sa growth 42C 101, HCMV NEC inh -34 and Sa growth 42C second temp 95.
Screening O=C(Cn1cnnc1)NCc1ccc(Cl)cc1 returned GIV Gai3 FP 106 and HCMV NEC inh 1.
`CCC1=NN(C(=O)c2ccncc2)C(O)(c2ccc(Br)cc2)C1` (stereo unspecified) gave GIV Gai3 FP 226 and HCMV NEC inh -46.
Cn1cccc1C(=O)OCc1cc(Cl)cc2c1OCOC2 was read as Sa growth 42C 86, HCMV NEC inh -32 and Sa growth 42C second temp 91.
Screening O=C(c1cc(O)c(O)c([N+](=O)[O-])c1)c1ccccc1F returned GIV Gai3 FP 105 and HCMV NEC inh -87.
Screening CC1(C)CC(=O)c2cc3c(N)c(C(=O)NCc4ccco4)sc3nc2C1 returned Sa growth 42C 81, GIV Gai3 FP 101, HCMV NEC inh -37 and Sa growth 42C second temp 88.
For O=C(c1ccccc1)c1ccc2nc(Cl)c3nnnn3c2c1 the results were Sa growth 42C 81, GIV Gai3 FP 106, HCMV NEC inh 10 and Sa growth 42C second temp 52.
For Cc1cc(C)nc(NS(=O)(=O)c2ccc(NC(=O)c3ccc(C(C)(C)C)cc3)cc2)n1 the results were GIV Gai3 FP 99 and HCMV NEC inh 3.
For CCOc1ccccc1CNC(=O)CCCN1C(=O)COc2ccc(C)cc21 the results were Sa growth 42C 98, GIV Gai3 FP 100, HCMV NEC inh 9 and Sa growth 42C second temp 85.
Screening NC(=O)c1sc2nc(-c3ccccc3)cc(-c3ccco3)c2c1N returned Sa growth 42C 92, HCMV NEC inh -13 and Sa growth 42C second temp 91.
For CC(C)OC(=O)Nc1ccc(Cl)cc1 the results were Sa growth 42C 100, GIV Gai3 FP 104, HCMV NEC inh -13 and Sa growth 42C second temp 83.
For CCC(=O)Nc1cccc(-n2c(C)nc3ccccc3c2=O)c1 the results were Sa growth 42C 114, GIV Gai3 FP 108, HCMV NEC inh -13 and Sa growth 42C second temp 103.
For C#CCOc1ccc(C2C3=C(CCCC3=O)N(CCC(=O)O)C3=C2C(=O)CCC3)cc1 the results were Sa growth 42C 95, GIV Gai3 FP 105, HCMV NEC inh -27 and Sa growth 42C second temp 81.
Screening COC(=O)c1cc(-c2ccc(/C=C3\C(=O)NC(=O)C(C#N)=C3C)o2)ccc1Cl returned Sa growth 42C 76, GIV Gai3 FP 105 and Sa growth 42C second temp 81.
COc1ccccc1CNC(=O)Nc1noc2c1COc1ccccc1-2 was read as Sa growth 42C 88, GIV Gai3 FP 103 and Sa growth 42C second temp 91.
For CC1SC(c2ccccc2)NC1=O (stereo unspecified) the results were Sa growth 42C 98, GIV Gai3 FP 105, HCMV NEC inh 6 and Sa growth 42C second temp 90.
`CCc1ccccc1NC(=O)CN1C(=O)COc2ccc(S(=O)(=O)N3CCCCCC3)cc21` gave Sa growth 42C 139, GIV Gai3 FP 106 and Sa growth 42C second temp 99.
CC(C)[C@H](NS(=O)(=O)c1ccc2c(c1)OCCO2)C(=O)OCc1nc2ccccc2s1 was read as Sa growth 42C 90, HCMV NEC inh -5 and Sa growth 42C second temp 83.
For Cc1c(C(=O)O)oc2ccc(S(=O)(=O)NCCc3ccccc3)cc12 the results were Sa growth 42C 96, GIV Gai3 FP 100 and Sa growth 42C second temp 90.
Cc1sc2c(c1C)C(=O)/C(=C\Nc1ccc(Cl)cn1)S(=O)(=O)N2C was read as Sa growth 42C 88, GIV Gai3 FP 103, HCMV NEC inh -3 and Sa growth 42C second temp 90.
`Cn1c(/C(C#N)=C2/CCCCCN2)nc2ccccc21` gave Sa growth 42C 95, HCMV NEC inh 2 and Sa growth 42C second temp 96.
Screening O=C(O)/C(=C\c1ccco1)NC(=O)c1ccco1 returned Sa growth 42C 115, HCMV NEC inh -40 and Sa growth 42C second temp 87.
O=C(C(Cc1ccccc1)NS(=O)(=O)c1cccc2nsnc12)N1CCc2ccccc21 (stereo unspecified) was read as Sa growth 42C 81, GIV Gai3 FP 105, HCMV NEC inh -27 and Sa growth 42C second temp 88.
Screening Cc1cc2cc(CNC(=S)Nc3ccccc3)ccc2n1C returned Sa growth 42C 98, GIV Gai3 FP 100 and Sa growth 42C second temp 77.
COc1ccc(-c2cc3cc(OC)c(OC)cc3c(Cc3ccccc3)n2)cc1 was read as Sa growth 42C 108, GIV Gai3 FP 104 and Sa growth 42C second temp 99.
For O=C(c1ccc2c(c1)OCO2)N(c1ccc(Br)cc1)C1C=CS(=O)(=O)C1 (stereo unspecified) the results were Sa growth 42C 101, GIV Gai3 FP 100, HCMV NEC inh -17 and Sa growth 42C second temp 88.
For CCN(c1cccc(C)c1)c1ncnc2c1cnn2-c1cccc(Cl)c1 the results were Sa growth 42C 99, GIV Gai3 FP 100 and Sa growth 42C second temp 91.
CS(=O)(=O)c1ccc(NC(=O)COc2ccc(I)cc2)cc1 was read as Sa growth 42C 109, HCMV NEC inh -41 and Sa growth 42C second temp 88.
`COC(=O)c1cc2c(ccn2C)n1Cc1cccc(OC)c1` gave Sa growth 42C 117, GIV Gai3 FP 96, HCMV NEC inh -21 and Sa growth 42C second temp 85.
`Cc1noc(-c2ccc(-c3noc(-c4ccccc4)n3)cc2)n1` gave Sa growth 42C 105, GIV Gai3 FP 106&100 and Sa growth 42C second temp 86.
`Cc1cccc(NC(=O)c2ccccc2-c2nc(-c3ccccc3)no2)c1` gave Sa growth 42C 116, GIV Gai3 FP 98, HCMV NEC inh -8 and Sa growth 42C second temp 101.
For Cc1ccc(CNC(=O)C2CCN(S(=O)(=O)c3ccc4c(c3)C(C)(C)C(=O)N4C)CC2)cc1 the results were GIV Gai3 FP 108 and HCMV NEC inh -12.
For O=S1(=O)C[C@H](NC2CCCCCC2)[C@@H](S(=O)(=O)c2cccs2)C1 the results were GIV Gai3 FP 99 and HCMV NEC inh -9.
`O=S(=O)(c1cccc(S(=O)(=O)N2CCN(c3ncccn3)CC2)c1)N1CCCCC1` gave Sa growth 42C 101, GIV Gai3 FP 100, HCMV NEC inh -8 and Sa growth 42C second temp 89.
Screening Cc1cc(F)ccc1Nc1nc2ccc(Cl)cc2n2cnnc12 returned Sa growth 42C 103, GIV Gai3 FP 99, HCMV NEC inh -31 and Sa growth 42C second temp 86.
CSc1ccc(S(=O)(=O)NCCC2=CCCCC2)cc1 was read as Sa growth 42C 108, GIV Gai3 FP 102, HCMV NEC inh -11 and Sa growth 42C second temp 99.
`Cc1cc(Nc2ccc(O)cc2)c2ccccc2n1` gave Sa growth 42C 98, HCMV NEC inh -7 and Sa growth 42C second temp 75.
Cc1cccc(-c2ocnc2C(=O)Nc2ccccc2CN(C)C2CCCCC2)c1 was read as Sa growth 42C 99, GIV Gai3 FP 100, HCMV NEC inh -4 and Sa growth 42C second temp 88.
CCC(Oc1ccccc1)C(=O)Nc1sc2c(c1C(N)=O)CCCC2 (stereo unspecified) was read as Sa growth 42C 136, HCMV NEC inh 3 and Sa growth 42C second temp 115.
Screening Cc1nccn1CC1CCc2c(c3ccccc3n2C)C1=O (stereo unspecified) returned Sa growth 42C 81&100&102, GIV Gai3 FP 101, HCMV NEC inh -36&3&-14&-67&-17&-61 and Sa growth 42C second temp 86&88&98.
`CC(C)(C)NC(=O)Nc1ccccc1C(N)=O` gave Sa growth 42C 101, GIV Gai3 FP 105, HCMV NEC inh 1 and Sa growth 42C second temp 93.
For C(=NCc1ccccc1)c1cn(-c2ccccc2)nc1-c1cccnc1 the results were Sa growth 42C 85, HCMV NEC inh -7 and Sa growth 42C second temp 87.
CC(C)N=c1cc2n(-c3ccc(Cl)cc3)c3ccccc3nc-2cc1Nc1ccc(Cl)cc1 was read as Sa growth 42C 35&84, HCMV NEC inh -106&-5&-84&-32 and Sa growth 42C second temp 9&44.
`CCC(=O)Nc1nc2ccccc2n1CCN1CCCC1` gave Sa growth 42C 94, GIV Gai3 FP 102, HCMV NEC inh -2 and Sa growth 42C second temp 85.
